PABP FP inh = PABP poly(A) RNA binding inhibitors, primary screen, biochemical, fluorescence polarization, uHTS | inhibition, % at 35 µM | 290,000 tested, 1% active | AID 2014, 2009;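 active means 50% or more with normal probe brightness, or confirmed in later tests; inconclusive means above 50% with abnormal brightness, or retests that disagree; inactive means below 50% or failed in later tests; about a fifth of its hits are not listed in these tables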;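 further: calls also rest on retests at 20 µM and on dose response follow-up; controls were probe without protein and protein plus probe with vehicle; some compounds called inactive have numbers as strong as hits; many hits fall short of the cut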
Target sequence (P11940 whole entry, looked up): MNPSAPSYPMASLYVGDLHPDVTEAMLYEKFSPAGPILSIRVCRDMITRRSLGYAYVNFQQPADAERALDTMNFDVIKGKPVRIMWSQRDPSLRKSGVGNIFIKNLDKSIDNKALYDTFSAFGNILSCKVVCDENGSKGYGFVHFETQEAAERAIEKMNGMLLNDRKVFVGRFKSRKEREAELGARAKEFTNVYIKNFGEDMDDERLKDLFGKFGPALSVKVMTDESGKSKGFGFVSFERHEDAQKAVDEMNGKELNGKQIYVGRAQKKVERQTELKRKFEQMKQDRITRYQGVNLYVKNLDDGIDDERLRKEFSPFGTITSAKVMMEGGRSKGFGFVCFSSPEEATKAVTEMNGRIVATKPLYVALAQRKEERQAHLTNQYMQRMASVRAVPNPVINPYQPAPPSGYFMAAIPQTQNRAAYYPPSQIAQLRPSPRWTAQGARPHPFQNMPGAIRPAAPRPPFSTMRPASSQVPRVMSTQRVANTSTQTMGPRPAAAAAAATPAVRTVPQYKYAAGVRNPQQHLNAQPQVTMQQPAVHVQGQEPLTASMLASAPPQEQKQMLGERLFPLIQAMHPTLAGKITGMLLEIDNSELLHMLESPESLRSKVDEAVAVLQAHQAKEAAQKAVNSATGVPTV
eIF4H FP inh = human eIF4H binding inhibitors, primary screen, translation initiation inhibitor project, biochemical, uHTS, fluorescence polarization; Eukaryotic translation initiation factor 4H (Homo sapiens), Q15056; eIF4H fluorescence polarization binding assay; inhibition, % at 35 µM; 290,000 tested, 0.94% active; AID 2012, 2009;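 active means 50% or more with normal probe brightness, or confirmed in later tests; inconclusive means above 50% with abnormal brightness, or retests that disagree; inactive means below 50% or failed in later tests; about a fifth of its hits are not listed in these tables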;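 further: calls also rest on retests at 20 µM and on dose response follow-up; 0% = protein and probe with vehicle and 100% = probe without protein; strong numbers were not always called active; many hits fall short of the cut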
MT1-MMP act inh = blockers of MT1-MMP proenzyme processing, primary screen, HT1080 RFP-PRO-GFP cells, GFP/RFP fluorescence | GFP/RFP ratio fluorescence, overnight; percent of plate control window, DMSO zero | GFP/RFP ratio change, % at 20 µM | 360,000 tested, 0.061% active | AID 651647, 2012;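 active means GFP/RFP ratio change of at least 30% with cell ATP level not reduced by more than half and red fluorescence within 50% of control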; further: strong numbers were not always called active
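Assay system: HT1080 RFP-PRO-GFP cells | Dosing: 20 µM single dose, 1% DMSO | Incubation: Cells overnight before dosing, compound overnight, 37 °C, 5% CO2 | Evaluation: GFP/RFP fluorescence ratio | Control set: DMSO-only wells and HT1080 RFP-L50D-GFP cell wells as references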
Yeast UUG start = modulators of yeast start codon fidelity, primary screen, whole organism, S. cerevisiae, single point, plate reader; S. cerevisiae UUG-firefly luciferase reporter, luminescence/redox ratio; activity score, % at 18.7 µM; 350,000 tested, 0.13% active;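 active means replicate mean at a twofold rise or more, about +100% in these data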;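 further: firefly luciferase made from a UUG start codon reports start codon fidelity; reporter light over untreated wells divided by growth signal over untreated wells; some hits fall short of that in this replicate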
Env fusion inh = inhibitors of HIV-1 Env-driven cell-cell fusion, primary screen, HeLa-JRFL effector, CEM21 target cells, luciferase; inhibition, % at 12.3 µM; 360,000 tested, 1.1% active;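 active means mean replicate inhibition score of at least 50 and every replicate individually at or above 50; inconclusive means only one of the two criteria met; inactive means mean below 50 and not all replicates reaching 50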;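 further: 0% = plate neutral controls and 100% = maraviroc near 300 nM; one replicate is shown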
Rce1 inhib = yeast Rce1p protease inhibitors, primary screen, biochemical, fluorescence, cell-free homogeneous | yeast membranes, quenched prenylated peptide cleavage fluorescence | calls only | 290,000 tested, 0.27% active;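 active means fall in fluorescence gain of 50% or more versus controls, with final raw signal at or below 3038400; inconclusive means same 50% fall but final raw signal above 3038400; inactive means fall in fluorescence gain under 50%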;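 further: plate controls were neutral control wells for no effect and wells lacking membranes for full effect; tested at 10 µM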
Target sequence (Q03530 whole entry, looked up): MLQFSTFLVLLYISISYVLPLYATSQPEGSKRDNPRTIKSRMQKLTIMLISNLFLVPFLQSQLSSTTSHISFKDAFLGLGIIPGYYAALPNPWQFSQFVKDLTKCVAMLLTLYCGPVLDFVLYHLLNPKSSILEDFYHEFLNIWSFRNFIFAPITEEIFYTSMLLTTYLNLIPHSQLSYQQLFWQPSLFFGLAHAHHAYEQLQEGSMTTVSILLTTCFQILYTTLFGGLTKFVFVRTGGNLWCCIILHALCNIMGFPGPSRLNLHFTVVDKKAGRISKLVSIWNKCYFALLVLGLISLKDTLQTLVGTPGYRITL
CSC inhib = cancer stem cell viability inhibitors, primary screen, luminescence | 300,000 tested, 1.1% active | AID 2717, 2010 | inhibition, % at 7.5 µM | cancer stem cell-like cells viability;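 active means mean at 75% or more and at least half the replicates too; inconclusive means mean and replicates disagree; tested in HMLE shEcad cells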;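 further: 0% = median of negative and 100% = median of positive control wells; the first replicate is given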
eIF4H FP inh retest = recorded beside eIF4H FP inh, whose call it bears; inhibition, %; compound at 20 µM; confirmation average;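 mean of two retest wells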
PABP FP inh retest = further read-out of PABP FP inh, marked with its call; inhibition, %; compound at 20 µM; confirmation repeats;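 mean of two retest wells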
MT1-MMP act inh RFP = second read-out of MT1-MMP act inh, no call of its own (marks repeat the call); RFP signal change, %; measured here: RFP expression control read;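 0 = vehicle wells; hits needed this value within 50% of zero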
Numbers without * were called inactive; i = inactive; ? = inconclusive; . = not tested or not shown. Compounds as they come (roughly 3% active in at least one column).

SMILES	PABP FP inh	eIF4H FP inh	MT1-MMP act inh	MT1-MMP act inh RFP	Yeast UUG start	Env fusion inh	Rce1 inhib	CSC inhib	others
CCc1nc2ccccc2n(CCOCCn2c(=O)c(CC)nc3ccccc32)c1=O	6.5	3.4	1.2	1.6	-3.6	.	.	.
NCCCC(N)(C(=O)O)C(F)F (stereo not drawn)	26.7	-3.6	4.2	2.7	-10.7	.	i	-2.0
CCn1cc(C(=O)NCCCN2CCC(C)CC2)c(=O)c2cc(S(=O)(=O)N3CCOCC3)ccc21	11.6	-6.8	1.7	6.7	-28.6	1.9	i	-10.2
COC(=O)c1ccc(N2CCN(c3ccccc3)CC2)c(NC(=O)C2CC2)c1	1.3	-6.5	7.2	10.0	-10.7	-15.4	i	-8.5
CCOC(=O)CCCc1c[nH]c2ccccc12	1.8	-5.6	1.7	-2.7	-15.9	8.7	i	16.9
Cc1ccc(NC(=O)c2cnc(SCC(=O)c3ccccc3)n(C)c2=O)cc1	.	.	6.4	5.6	-20.4	.	i	-2.9
COc1cccc(SCC(=O)N2CCN(c3ccccc3)CC2)c1	-6.6	-5.2	4.5	5.2	-7.4	5.4	i	-2.2
C=CCn1c(Cc2ccc(OC)cc2)nnc1SCC(=O)c1cccc([N+](=O)[O-])c1	-6.0	-2.3	2.1	-1.7	-17.2	-27.9	i	1.9
Nn1c(COc2ccccc2)nnc1SCC(=O)O	-4.6	-1.8	-2.1	0.1	0.3	-29.7	i	17.1
COc1ccc(C(=O)N2CCN(S(=O)(=O)c3ccc(F)cc3)CC2)cc1OC	-16.3	2.0	1.3	3.0	.	-0.1	i	2.2

The last 3 entries of the part above lead into the next:
SMILES	PABP FP inh	eIF4H FP inh	MT1-MMP act inh	MT1-MMP act inh RFP	Yeast UUG start	Env fusion inh	Rce1 inhib	CSC inhib	others
C=CCn1c(Cc2ccc(OC)cc2)nnc1SCC(=O)c1cccc([N+](=O)[O-])c1	-6.0	-2.3	2.1	-1.7	-17.2	-27.9	i	1.9
Nn1c(COc2ccccc2)nnc1SCC(=O)O	-4.6	-1.8	-2.1	0.1	0.3	-29.7	i	17.1
COc1ccc(C(=O)N2CCN(S(=O)(=O)c3ccc(F)cc3)CC2)cc1OC	-16.3	2.0	1.3	3.0	.	-0.1	i	2.2
CSc1ccc(-c2nnn(Cc3ccccn3)n2)cc1	-0.5	-2.6	12.0	0.8	-30.4	.	i	-4.2
CCn1c(-c2ccccc2)c(C(=O)O)c2ccccc21	12.9	-1.0	2.5	5.9	6.2	.	i	0.5
CCCn1c2ccccc2c2nnc(SCC(=O)OCC)nc21	4.8	-0.3	1.6	2.4	-8.8	.	i	-14.3
CC1CCN(S(=O)(=O)c2csc(C(=O)Nc3ccccc3)c2)CC1	3.9	-4.1	-5.8	-19.9	-12.4	.	i	8.3
Cn1c(N2CCC(C(N)=O)CC2)nc2c1c(=O)n(Cc1cccc(Br)c1)c(=O)n2C	4.1	-6.0	-0.9	-5.5	13.7	-25.3	i	9.3
Cc1ccc2c(c1)cc(CN(Cc1ccc3c(c1)OCO3)C(=O)c1ccccc1)c1nnnn12	5.6	-1.3	4.2	-1.6	-16.6	12.6	i	13.4
CCCSC1=N/C(=C\c2ccc([N+](=O)[O-])o2)C(=O)S1	21.7	96.2	-2.1	8.7	-4.4	13.1	.	.	eIF4H FP inh retest=-13.0;PABP FP inh retest=6.5
CC(C)(C)c1cc(C(=O)NC2CC2)n(Cc2ccc(F)cc2)n1	0.2	-7.5	8.3	6.2	0.3	6.0	i	0.0
CCn1ncc(Cl)c1C(=O)Nc1cc(Cl)ccc1Cl	-5.3	-8.3	-5.1	2.0	-7.2	-8.7	i	.
Cc1ccc(NC(=O)CSc2ccc(-c3ccc4c(c3)OCO4)nn2)cc1F	4.9	13.5	2.8	6.1	-18.5	.	i	5.4

Quoted at random: 2 records from the list
SMILES	PABP FP inh	eIF4H FP inh	MT1-MMP act inh	MT1-MMP act inh RFP	Yeast UUG start	Env fusion inh	Rce1 inhib	CSC inhib	others
NCCCC(N)(C(=O)O)C(F)F (stereo not drawn)	26.7	-3.6	4.2	2.7	-10.7	.	i	-2.0
CC(C)(C)c1cc(C(=O)NC2CC2)n(Cc2ccc(F)cc2)n1	0.2	-7.5	8.3	6.2	0.3	6.0	i	0.0

Continued:
SMILES	PABP FP inh	eIF4H FP inh	MT1-MMP act inh	MT1-MMP act inh RFP	Yeast UUG start	Env fusion inh	Rce1 inhib	CSC inhib	others
CC(C)Cc1nc2oc3c(Cl)ncnc3c2c2c1CCCC2	13.1	-12.5	-0.1	0.8	-4.8	-4.0	.	76.2*
Cc1nc2ncnn2c(N2CCN(S(=O)(=O)c3ccc(Br)cc3)CC2)c1C	-5.8	2.2	-6.6	-25.5	.	4.3	i	-19.7
Cc1cc(NC(=O)CSc2nc(-c3ccc(Br)cc3)nc3c2c(=O)n(C)c(=O)n3C)no1	6.0	-5.6	-1.9	-0.9	-1.8	.	i	-5.1
COC(=O)C(C)N(c1ccc(OC)cc1)S(C)(=O)=O (stereo not drawn)	2.0	-7.8	0.6	7.8	.	-4.9	i	-4.6
CCOC(=O)c1ccc(NC(=O)NCc2ccncc2)cc1	4.8	2.5	-1.2	-0.3	-8.1	-16.3	i	7.7
O=C(C[C@@H]1C/C=C\C[C@H](NC(=O)OCC2c3ccccc3-c3ccccc32)C(=O)OC[C@@H]2CCCN2C1=O)N[C@H](CO)Cc1ccccc1	.	.	-0.6	3.0	-5.1	6.6	.	.
COc1ccc(OC)c(S(=O)(=O)N(C)CC(=O)Nc2cc(Cl)ccc2OC)c1	1.1	-3.3	-0.3	-5.5	-1.5	.	i	-9.2
CSc1ccc(C(=O)NCC(c2ccco2)N(C)C)cc1[N+](=O)[O-] (stereo not drawn)	1.8	0.6	3.5	-2.3	-11.6	-8.4	i	4.8
C=CCNC(=O)c1oc2ccc(S(=O)(=O)N3CCC4(CC3)OCCO4)cc2c1C	.	.	-2.2	-1.0	-1.6	-8.1	i	-4.0
COc1cc(/C=N/NC(=O)c2cccnc2)ccc1OC(=O)c1cc(OC)c(OC)c(OC)c1	-6.6	-1.2	4.3	5.8	-15.1	23.9	i	.
O=C(c1ccccc1-c1ccccc1)N1CCCC1	3.8	1.1	0.7	4.9	-24.6	-33.6	i	7.0
C=CCN(Cc1nc(-c2ccccc2)no1)C(=O)c1ccc2c(c1)OCO2	-4.3	-9.4	-3.3	-1.5	-19.4	12.9	i	1.2
CC1CC(C)CN(C(=S)Nc2ccc(OC(F)F)cc2)C1 (stereo not drawn)	4.4	-2.0	0.7	-0.4	-19.4	11.9	i	-10.7
CC1CN(S(=O)(=O)c2cccc(C(=O)N=c3sccn3C)c2)CC(C)O1 (stereo not drawn)	.	.	3.8	-7.9	-5.0	3.3	i	-8.6
O=C(/C=C/Nc1ccc(Oc2ccccc2Cl)cc1)c1ccco1	-5.4	-3.4	-5.2	-3.5	.	-376.7	i	13.7
COc1ccc(NC(=O)CSc2ccc(-c3cccs3)nn2)c(OC)c1	19.4	7.1	-0.9	-5.0	.	1.2	i	5.5
CC12CCC(=O)N1C(C(=O)Oc1cccc(F)c1)CS2 (stereo not drawn)	.	.	0.4	4.8	-14.3	-9.0	.	.
O=C(Nc1cccc([N+](=O)[O-])c1)c1ccc(CSc2ccccc2)cc1	2.3	12.1	3.5	0.6	-14.5	30.0	i	2.7
Cc1ccccc1NC(=O)COC(=O)CCc1c[nH]c2ccccc12	.	.	0.7	3.2	.	5.4	.	-4.2
COc1ccc(OC)c(-c2nn(-c3ccccc3)cc2C(=O)NC2(C)CCS(=O)(=O)C2)c1 (stereo not drawn)	.	.	0.1	1.6	-14.1	17.5	.	.
Cc1cccc(NC(=O)Cn2cc(C(=O)c3ccco3)c3ccccc32)c1	-6.9	-0.1	13.1	-5.3	-39.1	.	i	15.2
C/C(=N/NC(=O)c1ccncc1)C1=C(O)CC(C)(C)CC1=O	2.2	-15.4	3.5	3.8	.	10.8	i	-11.8
O=C1OCC(CO)(CO)N=C1NNc1ccc(Cl)c(Cl)c1	2.8	-2.5	-2.1	2.8	-34.7	.	i	12.3
C/C(=N\Nc1ncc(Cl)cc1Cl)c1ccc(C#N)cc1	-3.6	-5.8	.	.	-2.4	-46.3	i	6.1
CCCCn1nnc(NC(=O)c2sc3cc(Cl)ccc3c2Cl)n1	0.9	1.1	0.4	1.4	-11.2	.	i	20.1
COc1ccc(Cl)cc1NC(=O)CN(C)C(=O)CN1C(=O)NC(C)(C)C1=O	.	.	0.0	1.6	-7.2	-4.4	.	-5.8
O=C(Cc1ccc(F)cc1)Nc1ccc(S(=O)(=O)N2CCCC2)cc1	.	.	1.5	-1.1	7.3	.	i	-3.1
Cc1cc(N2CCN(C)CC2)n2cc(-c3ccc(F)cc3)nc2n1	-16.6	7.4	0.4	1.3	-1.4	20.6	i	7.7
COc1cc(/C=C/C(=O)N2CCCN(C(=O)/C=C/c3cc(OC)c(OC)c(OC)c3)CC2)cc(OC)c1OC	-1.3	-3.0	5.4	-1.2	.	-9.4	i	-7.9
Cc1ccc(OCC(=O)N/N=C\c2ccc(O)cc2)c([N+](=O)[O-])c1	33.8	1.1	-1.6	-2.7	.	-2.4	i	.
O=C(c1cc2c([nH]c1=O)CCCC2)N1CCc2c([nH]c3ccccc23)C1c1ccccc1F (stereo not drawn)	-8.1	-9.6	-3.2	-1.2	.	9.5	i	-9.1
COc1ccc(Cn2nnnc2C(c2cc3cc(C)ccc3[nH]c2=O)N2CCN(C)CC2)cc1 (stereo not drawn)	-6.7	-4.4	-5.1	-1.9	.	-2.3	i	-6.0
Cc1c(C)c2ccc(OCC(=O)NCCCN3CCCC3=O)cc2oc1=O	-1.2	-9.0	-2.3	0.9	-15.8	11.6	?	-14.0
CCN(CC)S(=O)(=O)c1cc(C(=O)c2nccn2C)ccc1Cl	-14.1	-0.1	-0.2	5.4	.	21.2	i	-9.7
CC(C)c1ccc(/C=N/N2CCN(c3ccccn3)CC2)cc1	0.1	-2.8	8.8	-2.6	-15.3	16.6	i	3.0
OC1(c2cccs2)CN(c2ccc(Cl)cc2)C2=[N+]1CCCC2 (stereo not drawn)	-13.1	-0.8	-0.5	0.3	.	-22.7	i	22.4
Cc1cc(C)cc(NC(=O)CN2C(=O)COc3ccc(S(=O)(=O)N4CCCC4)cc32)c1	-5.4	-2.8	0.3	5.9	1.6	10.3	i	-6.4

Molecules listed so far that have a thiophene ring, fused or not:
SMILES	PABP FP inh	eIF4H FP inh	MT1-MMP act inh	MT1-MMP act inh RFP	Yeast UUG start	Env fusion inh	Rce1 inhib	CSC inhib	others
CC1CCN(S(=O)(=O)c2csc(C(=O)Nc3ccccc3)c2)CC1	3.9	-4.1	-5.8	-19.9	-12.4	.	i	8.3
COc1ccc(NC(=O)CSc2ccc(-c3cccs3)nn2)c(OC)c1	19.4	7.1	-0.9	-5.0	.	1.2	i	5.5
CCCCn1nnc(NC(=O)c2sc3cc(Cl)ccc3c2Cl)n1	0.9	1.1	0.4	1.4	-11.2	.	i	20.1
OC1(c2cccs2)CN(c2ccc(Cl)cc2)C2=[N+]1CCCC2 (stereo not drawn)	-13.1	-0.8	-0.5	0.3	.	-22.7	i	22.4

Screening data deposited in PubChem by several laboratories.
